# eIF4H FP inh: inhibitors of RNA binding by human eIF4H; eIF4H fluorescence polarization binding assay; inhibition, % at 35 µM; actives 0.94% (n = 290,000);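 active = 50% or more with normal probe brightness, or confirmed in later tests; about a fifth of its hits are not listed in these tables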;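 also: calls also rest on retests at 20 µM and on dose response follow-up; 0% = protein and probe with vehicle and 100% = probe without protein; strong numbers were not always called active; many hits fall short of the cut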
# UUG fidelity: alters start codon recognition fidelity in yeast | actives 0.13% (n = 350,000) | S. cerevisiae UUG-firefly luciferase reporter, luminescence/redox ratio | activity score, % at 18.7 µM | AID 602363;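 active = replicate mean at a twofold rise or more, about +100% in these data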;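 also: firefly luciferase made from a UUG start codon reports start codon fidelity; reporter light over untreated wells divided by growth signal over untreated wells; some hits fall short of that in this replicate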
# PABP FP inh: PABP-poly(A) binding inhibition. inhibition, % at 35 µM. PABP-poly(A) RNA binding, fluorescence polarization. actives 1% (n = 290,000). P11940. AID 2014;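 active = 50% or more with normal probe brightness, or confirmed in later tests; about a fifth of its hits are not listed in these tables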;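 also: calls also rest on retests at 20 µM and on dose response follow-up; controls were probe without protein and protein plus probe with vehicle; some compounds called inactive have numbers as strong as hits; many hits fall short of the cut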
# Target sequence (P11940 whole entry, looked up): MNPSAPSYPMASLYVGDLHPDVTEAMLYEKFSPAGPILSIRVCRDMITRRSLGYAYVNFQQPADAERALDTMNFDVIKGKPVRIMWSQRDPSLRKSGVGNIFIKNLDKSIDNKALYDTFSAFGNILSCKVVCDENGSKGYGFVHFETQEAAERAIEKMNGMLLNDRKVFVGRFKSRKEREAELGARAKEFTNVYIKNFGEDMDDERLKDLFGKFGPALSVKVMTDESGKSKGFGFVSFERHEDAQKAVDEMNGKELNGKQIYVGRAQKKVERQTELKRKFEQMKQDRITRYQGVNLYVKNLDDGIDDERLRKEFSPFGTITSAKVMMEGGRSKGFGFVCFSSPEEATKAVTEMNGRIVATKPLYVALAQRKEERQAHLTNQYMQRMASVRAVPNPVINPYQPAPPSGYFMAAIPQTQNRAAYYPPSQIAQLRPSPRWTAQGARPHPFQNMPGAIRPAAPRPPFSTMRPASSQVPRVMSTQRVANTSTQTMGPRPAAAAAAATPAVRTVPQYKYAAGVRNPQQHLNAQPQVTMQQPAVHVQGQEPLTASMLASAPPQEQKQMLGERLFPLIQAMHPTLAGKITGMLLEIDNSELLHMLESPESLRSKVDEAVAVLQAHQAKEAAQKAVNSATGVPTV
# Rce1 inhib: yeast Ras-converting enzyme inhibition. Q03530. yeast membranes, quenched prenylated peptide cleavage fluorescence. calls only. actives 0.27% (n = 290,000);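 active = fall in fluorescence gain of 50% or more versus controls, with final raw signal at or below 3038400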;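 also: plate controls were neutral control wells for no effect and wells lacking membranes for full effect; tested at 10 µM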
# Target sequence (Q03530 whole entry, looked up): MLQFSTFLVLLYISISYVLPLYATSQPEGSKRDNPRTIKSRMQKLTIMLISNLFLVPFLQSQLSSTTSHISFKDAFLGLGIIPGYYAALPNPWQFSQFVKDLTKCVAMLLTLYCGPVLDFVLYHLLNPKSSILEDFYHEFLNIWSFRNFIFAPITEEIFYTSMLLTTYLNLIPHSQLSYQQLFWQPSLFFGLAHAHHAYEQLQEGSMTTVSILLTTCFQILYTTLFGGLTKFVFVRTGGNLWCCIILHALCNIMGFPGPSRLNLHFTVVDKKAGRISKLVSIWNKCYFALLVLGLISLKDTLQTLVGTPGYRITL
# MT1-MMP act inh: blocks activation of human MT1-MMP; GFP/RFP ratio change, % at 20 µM; actives 0.061% (n = 360,000); HT1080 RFP-PRO-GFP cells, GFP/RFP ratio fluorescence, overnight; percent of plate control window, DMSO zero;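 active = GFP/RFP ratio change of at least 30% with cell ATP level not reduced by more than half and red fluorescence within 50% of control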; also: strong numbers were not always called active
#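 system = RFP-PRO-GFP reporter HT1080 cells | dosing = 20 µM single dose, 1% DMSO | timing = overnight cell settling, then overnight compound exposure, 37 °C, 5% CO2 | read-out basis = GFP/RFP fluorescence ratio | controls = DMSO and RFP-L50D-GFP cell wells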
# Env fusion inh: blocks HIV Env-driven cell-cell fusion; HeLa-JRFL Env/CEM21 cell fusion, luciferase; inhibition, % at 12.3 µM; actives 1.1% (n = 360,000);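 active = mean replicate inhibition score of at least 50 and every replicate individually at or above 50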;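 also: 0% = plate neutral controls and 100% = maraviroc near 300 nM; one replicate is shown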
# CSC inhib: cancer stem cell inhibition | cancer stem cell-like cells viability, luminescence | inhibition, % at 7.5 µM | actives 1.1% (n = 300,000) | AID 2717;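 active = mean at 75% or more and at least half the replicates too; tested in HMLE shEcad cells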;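 also: 0% = median of negative and 100% = median of positive control wells; the first replicate is given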
# eIF4H FP inh retest: further read-out of eIF4H FP inh, marked with its call; inhibition, %; compound at 20 µM; confirmation average;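 mean of two retest wells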
# PABP FP inh retest: recorded beside PABP FP inh, whose call it bears; inhibition, %; compound at 20 µM; confirmation repeats;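 mean of two retest wells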
# MT1-MMP act inh RFP: second read-out of MT1-MMP act inh, no call of its own (marks repeat the call); RFP signal change, %; measured here: RFP expression control read;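 0 = vehicle wells; hits needed this value within 50% of zero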
# * = called active by the depositor; i = inactive; x = not tested or not shown; & = joins results of further samples; [ ] = dose if it differs, or a comment.
SMILES,eIF4H FP inh,UUG fidelity,PABP FP inh,Rce1 inhib,MT1-MMP act inh,MT1-MMP act inh RFP,Env fusion inh,CSC inhib,others
Cc1ccc(-c2nnc(SCC(=O)NC3CCCC3)n2N)cc1,x,-18,x,x,-2,8,30,-9,
CC1CCN(CCOCCSc2ccc(Cl)cc2)CC1,2,x,1,i,-1,1,9,x,
O=C(CNC(=O)c1ccccc1)N/N=C/c1cn[nH]c1-c1ccccc1,-11,1,-6,i,0,7,0,-7,
C=C(C)COc1ccc(-c2nc(N)ncc2-c2ccc(OC)c(OC)c2)c(O)c1,-3,-16,2,i,-3,-7,20,2,
O=C1/C(=C/c2ccco2)CCc2ccccc21,81,5,-1,i,-4,4,x,-22,eIF4H FP inh retest=-16;PABP FP inh retest=4
CCOc1ccc([N+](=O)[O-])cc1CNC1CCCCCCC1,-7,-12,-11,i,-2,-4,-11,51,
O=C1c2ccccc2NC(c2ccco2)N1/N=C/c1ccco1 (stereo unspecified),-6,-1,-3,i,1,2,17,-2,
Cc1cccc(NC(=O)COC(=O)c2cc(C)oc2C)c1,10,x,-3,i,-1,0,0,12,
CCCCNC(=O)C1CC(=O)N(C2CCCCC2)C1 (stereo unspecified),-7,x,5,i,-2,-1,x,3,
NS(=O)(=O)c1ccc(NC(=O)NC2CC(=O)N(c3ccc4c(c3)OCCO4)C2)cc1 (stereo unspecified),x,x,x,i,1,3,-34,-8,
Cc1ccccc1NS(=O)(=O)c1cc(C(=O)NCCC2=CCCCC2)ccc1Cl,-3,4,3,i,-9,-14,34,4,
C#CCNC(=O)C1=C[C@@H](c2ccc(Br)cc2)C[C@@H](OCCCCO)O1,2,-22,8,i,1,-4,0,9,
CC(C)(C)c1ccc(CCC2OCC(C[N+]3(C)CCOCC3)O2)cc1 (stereo unspecified),-4,-7,42,i,-1,-1,15,38,
O=C1OC2CC3CC1CC(O)(C3)C2 (stereo unspecified),5,-44,1,i,2,9,39,-11,
CCc1ccc(-n2c(=O)c3ccc(C(=O)NCCc4ccccc4)cc3n(CC(N)=O)c2=O)cc1,-6,-14,-8,i,-3,-4,10,2,
CC(Oc1cc(C(F)(F)F)cc(C(F)(F)F)c1)C(=O)NC(N)=O (stereo unspecified),16,-18,-8,i,4,0,33,-8,
CCN(CC)CCN=C1CCCc2ccccc2N1,-7,5,6,i,5,3,x,9,
CCOC(=O)CSc1ccc(S(=O)(=O)N2CCCCC2)cc1[N+](=O)[O-],-1,-3,90,i,-1,1,-11,-9,eIF4H FP inh retest=-1;PABP FP inh retest=4
COC(=O)c1ccccc1NC(=O)c1cc(-c2ccc(O)cc2)on1,-2,-13,5,i,5,2,2,3,
COCCNC(=O)C1CCCN(C(=O)c2nc3ccccc3s2)CC1 (stereo unspecified),x,-2,x,x,2,4,6,x,
CCC(C)(C)n1nnnc1CN(Cc1ccco1)Cc1cc2cc3c(cc2[nH]c1=O)OCO3,-3,-4,48,i,-3,8,x,-3,
CCn1cc(CN2CCCC(CNS(=O)(=O)c3cccc4cccnc34)C2)cn1 (stereo unspecified),-13,-17,-4,i,-1,2,x,4,
Cc1ccc(NS(=O)(=O)N2CCOCC2)c(C)c1,-4,-10,-14,i,-2,-1,6,-15,
Cc1nc(-c2ccc(NC(=O)c3ccc(Br)o3)cc2)cs1,-2,-27,-4,i,9,-7,-194,40,
CCOc1cc(CN2CCN(C(=O)c3ccco3)CC2)ccc1OC,-10,3,6,i,0,-1,x,-3,
Cc1ccc(OCC(=O)NNC(=O)C2CCN(c3ncccn3)CC2)cc1,-14,-6,-12,i,-1,0,x,2,
CC(C)(C)NC(=O)C(c1ccc(F)cc1)N(C(=O)CCC(=O)Nc1ccccn1)C1CCCC1 (stereo unspecified),6,2,5,i,-3,-1,11,-4,
CCOC(=O)C1C(=O)N(O)CC1c1cccc(Oc2ccccc2)c1 (stereo unspecified),2,2,-10,i,1,-3,22,-5,
CC(C)C(C)N(Cc1cccc(C(=O)O)c1)C(=O)c1ccc2ccccc2n1 (stereo unspecified),x,-9,x,i,0,5,0,-10,
COc1ccccc1C(=O)NC(=S)Nc1ccccc1N1CCCC1,6,-2,8,x,2,1,-62,-4,
CCOc1cccc(CNc2ccc(O)cc2)c1OCc1ccc(Cl)cc1,34,x,27,i,10,5,x,-3,
CCc1cc2c(=O)n3c(nc2s1)-c1[nH]c2ccc(OC)cc2c1CC3,6,x,0,i,-4,-8,-41,-11,
Cc1cccnc1NC(=O)c1cccc(S(=O)(=O)N2CCN(c3ccc(F)cc3)CC2)c1,0,-9,4,i,-8,-14,-7,x,
CCc1nnc(NC(=O)CCC(=O)NC2CC2)s1,-6,19,-8,i,1,4,-1,-2,
O=C(Cc1ccc(NC(=O)C2CCN(C(=O)CCc3ccccc3)CC2)cc1)Nc1ccc(C(=O)N2CCOCC2)cc1,x,6,x,x,4,6,-5,x,
Cc1noc(/C=C/c2ccco2)c1S(=O)(=O)N1CCC(C(=O)NC(C)c2ccccc2)CC1 (stereo unspecified),10,-18,14,i,-7,0,-5,0,
COc1ccc(C)cc1NC(=O)c1ccc2c(SCC(=O)O)c3c(nc2c1)CCCC3,-6,x,16,i,4,1,8,0,
Cc1cc2nnc(SCC(=O)NCc3cccs3)n2c(N)n1,3,-12,-2,i,2,-4,6,-1,
C/C(=N\O)c1ccc2c3ccccc3n(C)c2c1,6,-14,2,i,0,2,-86,-3,
CCn1c(SCC(=O)Nc2ccccc2N2CCOCC2)nnc1-c1ccccc1O,-4,-6,-5,i,6,7,x,-7,
COC(=O)CCC(=O)Nc1ccccc1C(=O)Nc1ccccc1,0,-17,4,i,0,2,x,-19,
O=C(CNC1CCCCC1)Nc1cccc([N+](=O)[O-])c1,x,-9,x,i,3,4,-3,-4,
CCOC(=O)c1c(NC(=O)COc2ncnc3sccc23)sc2c1CCC2,7,-15,-3,i,-5,-8,25,0,
Nc1nc(-c2nonc2N)no1,-6,x,-1,i,1,3,-5,x,
O=C(Nc1ncc(Cc2ccc(C(F)(F)F)cc2)s1)c1ccc(-c2cccc([N+](=O)[O-])c2)o1,2,x,4,i,5,-16,33,43,
COc1ccc(C2(C)NC(=O)N(CC(=O)Nc3cccnc3Cl)C2=O)cc1 (stereo unspecified),-3,-17,-4,i,0,2,8,-9,
CCOC(=O)c1c(C)[nH]c(C(=O)N/N=C/c2cc([N+](=O)[O-])ccc2O)c1C,32,-21,3,i,-6,-9,-10,-11,
O=C(Nc1ccccc1O)c1ccc2c(c1)C(=O)N(c1ccccc1)C2=O,-6,-18,-5,i,6,1,-69,x,
CC(Sc1nc2nn(-c3ccccc3)c(=O)c-2c2n1CCCCC2)C(N)=O (stereo unspecified),-10,-21,1,i,2,5,x,-9,
Cc1ccc(S(=O)(=O)C(CCC(=O)N2CCOCC2)S(=O)(=O)c2ccc(C)cc2)cc1,-2,-9,0,i,8,1,-56,-16,
Nc1[nH]ncc1C(=O)Nc1cccc(C(F)(F)F)c1,-11,-7,-9,i,1,0,-137,2,
Cc1ccc(NCN2C(=O)c3ccccc3C2=O)c(C)c1,-7,-19,5,i,-2,6,x,14,
O=C(C1Cc2ccccc2CN1S(=O)(=O)c1ccccc1[N+](=O)[O-])N1CCOCC1 (stereo unspecified),x,-10,x,x,-3,1,7,4,
COc1cccc(OCC(O)CNC(=O)c2oc3ccc(C)cc3c2C)c1 (stereo unspecified),-8,5,-3,i,-4,2,-4,2,
CCOC(=O)c1c(NC(=O)CSc2nnc(C)c(=O)[nH]2)sc(C)c1-c1ccc(C)cc1,0,x,12,i,-6,-5,0,15,
O=C(NNC(=O)c1cc2cc3ccccc3nc2s1)c1cccc(C(F)(F)F)c1,51*,-10,14,i,0,1,x,5,eIF4H FP inh retest=65*;PABP FP inh retest=6
CC(=O)Nc1ccc(S(=O)(=O)NCc2cn3ccsc3n2)cc1,0,-15,-1,i,-2,-1,-55,-8,
CCOCCc1c(O)nc(SCC(=O)N2CCOCC2)[nH]c1=O,14,-9,6,i,-4,-1,4,0,
CN(CC(=O)Nc1ccc(Cl)cc1)C(=O)C1=COCCO1,x,-20,x,i,1,2,x,12,
CC(=O)O[C@@H]1[C@H]2[C@@H](C[C@@H](C)[C@@H]3CCC(=O)[C@@]13C)OC(=O)[C@@H]2C,-8,-12,-9,i,1,6,0,-2,
# The listing continues:
SMILES,eIF4H FP inh,UUG fidelity,PABP FP inh,Rce1 inhib,MT1-MMP act inh,MT1-MMP act inh RFP,Env fusion inh,CSC inhib,others
COc1ccc(S(=O)(=O)N(C)C[C@H]2Oc3ccc(NC(=O)C4CCCCC4)cc3C(=O)N([C@H](C)CO)C[C@@H]2C)cc1,x,18&6,x,x,-1,0,-32[16.7 µM],-14,
O=C(COC(=O)CCc1c[nH]c2ccccc12)Nc1cc([N+](=O)[O-])ccc1Cl,-8,-4,17,i,5,6,-2,1,
O=c1[nH]c(NCc2ccccc2)nc2c1CCC2,-3,x,12,i,0,3,-4,-1,
O=C(Cn1nc(-c2ccc(F)cc2)ccc1=O)Nc1ccc2c(c1)OCCO2,5,-18,7,i,0,0,-13,-18,
CCn1c(=O)c2ccccc2n(Cc2cccc(C)c2)c1=O,-17,9,-2,i,10,-5,16,-6,
Cc1ccc(NC(=O)COc2coc(CN3c4ccccc4CC3C)cc2=O)c(C)c1 (stereo unspecified),x,-1,x,i,4,-7,20,10,
c1csc(-c2ccc3ccccc3n2)c1,-10,-4,-8,i,-5,0,x,-2,
COC(=O)CCSCC(=O)Nc1cc(C)on1,-7,-9,-5,i,-5,5,-26,-7,
CCCC(c1nnnn1Cc1ccc(F)cc1)N1CCN(CC)CC1 (stereo unspecified),-10,x,16,i,-1,5,-27,14,
O=C(CN1CCN(S(=O)(=O)c2ccc(F)c(Cl)c2)CC1)N1CCc2ccccc2C1,x,-11,x,x,-4,-8,7,x,
O=C(N=C1SC2CS(=O)(=O)CC2N1c1c(Cl)cccc1Cl)C1CC1 (stereo unspecified),-10,-37,5,i,-2,0,-1,-37,
Cc1cccc(-n2nnnc2SCC(=O)c2cc(C)n(CC3CCCO3)c2C)c1 (stereo unspecified),53*,-12,55*,i,2,1,-44,x,

# A section from further up:
SMILES,eIF4H FP inh,UUG fidelity,PABP FP inh,Rce1 inhib,MT1-MMP act inh,MT1-MMP act inh RFP,Env fusion inh,CSC inhib,others
COc1ccc(S(=O)(=O)N(C)C[C@H]2Oc3ccc(NC(=O)C4CCCCC4)cc3C(=O)N([C@H](C)CO)C[C@@H]2C)cc1,x,18&6,x,x,-1,0,-32[16.7 µM],-14,
O=C(COC(=O)CCc1c[nH]c2ccccc12)Nc1cc([N+](=O)[O-])ccc1Cl,-8,-4,17,i,5,6,-2,1,
O=c1[nH]c(NCc2ccccc2)nc2c1CCC2,-3,x,12,i,0,3,-4,-1,
O=C(Cn1nc(-c2ccc(F)cc2)ccc1=O)Nc1ccc2c(c1)OCCO2,5,-18,7,i,0,0,-13,-18,
CCn1c(=O)c2ccccc2n(Cc2cccc(C)c2)c1=O,-17,9,-2,i,10,-5,16,-6,

# Next records follow:
SMILES,eIF4H FP inh,UUG fidelity,PABP FP inh,Rce1 inhib,MT1-MMP act inh,MT1-MMP act inh RFP,Env fusion inh,CSC inhib,others
CCOC(=O)c1c(C)nc(-c2ccccc2)nc1NC(C)=O,2,-7,-2,i,1,2,x,-2,
Cc1cc(C)nc(Oc2ccc([N+](=O)[O-])cc2)n1,-1,x,-3,i,1,2,-11,-13,
CCN1CCSc2ccc(C(=O)NCc3cccc(Br)c3)cc21,-10,-9,-2,i,2,-1,20,30,
CC(C)c1ccc(NC(=O)CSc2nc(=O)[nH]c3c2CCCC3)cc1,x,1,x,i,5,-4,-24,4,
O=S(=O)(O)c1nc2ccccc2n1Cc1ccc(Cl)cc1Cl,-10,-14,19,i,-1,-7,x,-6,

# Bioassay records: PubChem, several laboratories
